FGF22 binding – binders of human FGF22 protein, primary screen, FGF22 synaptogenesis inhibitor project, biophysical, thermal shift, single point. AID 651658, 2012. recombinant FGF22 thermal shift, SYPRO orange fluorescence; percent of sucrose octasulfate shift, DMSO zero. 340,000 tested, 1.5% active. calls only at 9.99 µM;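 active means melting point raised past a set limit in the mean and every replicate; three in four hits are not shown here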
AF4-AF9 inh – inhibitors of AF4 peptide binding to AF9, primary screen, biochemical, AlphaScreen, biotin-AF4 peptide, FLAG-AF9, single point; 350,000 tested, 0.47% active; AID 651704, 2012; inhibition, % at 10 µM;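 active means every replicate reaching a set inhibition limit, whatever the replicate mean, cut at about 25% in these data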;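 further: 0% = plate neutral control median and 100% = total signal loss; the record names both 10 and 1 µM as test concentration; the first replicate is given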
Target sequence (P42568 whole entry, looked up): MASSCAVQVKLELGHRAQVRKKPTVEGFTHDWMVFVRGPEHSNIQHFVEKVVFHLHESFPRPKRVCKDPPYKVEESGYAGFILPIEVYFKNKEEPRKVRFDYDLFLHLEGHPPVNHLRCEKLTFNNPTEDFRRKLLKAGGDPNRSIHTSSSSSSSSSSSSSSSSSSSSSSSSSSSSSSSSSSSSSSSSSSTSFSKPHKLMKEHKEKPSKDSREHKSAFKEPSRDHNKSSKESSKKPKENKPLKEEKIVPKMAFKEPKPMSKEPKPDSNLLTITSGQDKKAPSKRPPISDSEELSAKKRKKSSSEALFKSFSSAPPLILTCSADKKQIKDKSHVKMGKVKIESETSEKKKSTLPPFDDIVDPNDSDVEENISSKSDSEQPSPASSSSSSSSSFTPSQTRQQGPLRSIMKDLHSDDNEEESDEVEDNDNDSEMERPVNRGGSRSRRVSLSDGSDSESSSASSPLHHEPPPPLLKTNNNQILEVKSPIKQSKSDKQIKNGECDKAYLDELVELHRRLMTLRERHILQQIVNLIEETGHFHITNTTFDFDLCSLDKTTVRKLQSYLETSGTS
rRNA inh HTS – reduced GFP signal of wild-type E. coli, primary screen, bacterial rRNA inhibitor project, GFP/RFP fluorescence, OD600, single point. E. coli WT GFP vs humanized-ribosome RFP mutants, 24 h; stronger effect = lower value; DMSO median 0, no signal -100. GFP signal change (wild-type ribosome), % (test concentration not listed). 350,000 tested, 1.6% active;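 active means significant combined selectivity score with lowered wild-type GFP, culture density cut under 30%, mutant RFP and density less affected; inactive means any of these conditions unmet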; further: one replicate is shown; some compounds called inactive have numbers as strong as hits
rRNA inh HTS OD600 – also measured in rRNA inh HTS; calls as there; OD600 change, %; measured here: OD600 growth;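 optical density of the mix in the first replicate; 0 = DMSO median and -100 = no signal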
rRNA inh HTS RFP – recorded beside rRNA inh HTS, whose call it bears; RFP signal change, %; measured here: RFP humanized mutant strains;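 first replicate; 0 = DMSO median and -100 = no signal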
* marks the source's active call; other numbers are inactive results; i = inactive; & = joins results of further samples. A portion of the library, so the mix of outcomes need not match the whole.

#1 COc1ccccc1S(=O)(=O)N[C@@H]1CC[C@H](CC(=O)N2CCOCC2)O[C@@H]1CO
#2 C[C@H](CO)N1C[C@H](C)[C@H](CN(C)S(C)(=O)=O)Oc2ncc(C#CCN(C)C)cc2C1=O
#3 COc1ccc(CNC(=O)N(C)C[C@H]2OCc3ccccc3-c3c(n(C)c4ccccc34)C(=O)N([C@H](C)CO)C[C@H]2C)cc1
#4 CC(C)CC#Cc1ccc([C@@H]2[C@@H](CO)N3C(=O)CN(C(=O)c4cccc(F)c4)C[C@@H]23)cc1
#5 O=C(C[C@@H]1CC[C@@H]2[C@H](COC[C@H](O)CN2Cc2ccc(C(F)(F)F)cc2)O1)NCCc1ccccc1
#6 C[C@H](CO)N1C[C@H](C)[C@H](CN(C)C(=O)CCC(F)(F)F)OCc2ccccc2-c2c(n(C)c3ccccc23)C1=O
#7 O=C(C[C@@H]1CC[C@H]2[C@@H](COC[C@H](O)CN2S(=O)(=O)c2ccccc2F)O1)NCc1ccccc1F
#8 O=C(C[C@@H]1C=C[C@H](NC(=O)CN2CCOCC2)[C@@H](CO)O1)NC1CCCCC1

Assay by compound	1	2	3	4	5	6	7	8
FGF22 binding	i	i	i	i	i	i	i	i
AF4-AF9 inh	-2.2	-2.0&-2.1	2.1	1.0	1.4	-3.2	-1.7	-4.1
rRNA inh HTS	4	7	0	-2	-6	-4	-1	-3
rRNA inh HTS OD600	4	19	4	0	-39	-3	1	3
rRNA inh HTS RFP	-2.2	-2.3	0.0	-3.2	11	0.5	3.9	-0.4

Four compounds from above, ordered by molecular weight, low to high.
#1 COc1ccccc1S(=O)(=O)N[C@@H]1CC[C@H](CC(=O)N2CCOCC2)O[C@@H]1CO
#2 C[C@H](CO)N1C[C@H](C)[C@H](CN(C)S(C)(=O)=O)Oc2ncc(C#CCN(C)C)cc2C1=O
#5 O=C(C[C@@H]1CC[C@@H]2[C@H](COC[C@H](O)CN2Cc2ccc(C(F)(F)F)cc2)O1)NCCc1ccccc1
#6 C[C@H](CO)N1C[C@H](C)[C@H](CN(C)C(=O)CCC(F)(F)F)OCc2ccccc2-c2c(n(C)c3ccccc23)C1=O

Assay by compound	1	2	5	6
FGF22 binding	i	i	i	i
AF4-AF9 inh	-2.2	-2.0&-2.1	1.4	-3.2
rRNA inh HTS	4	7	-6	-4
rRNA inh HTS OD600	4	19	-39	-3
rRNA inh HTS RFP	-2.2	-2.3	11	0.5

More results follow:
#9 COCC#Cc1ccc2c(c1)O[C@@H](CN(C)Cc1ccncc1)[C@@H](C)CN([C@@H](C)CO)S2(=O)=O
#10 O=C(C[C@H]1C[C@H]2c3cc(NC(=O)NC4CCCCC4)ccc3O[C@H]2[C@H](CO)O1)NCc1ccccn1
#11 C[C@H]1CN([C@@H](C)CO)C(=O)Cc2cc(NC(=O)CCC(F)(F)F)ccc2O[C@@H]1CN(C)Cc1ccc2c(c1)OCO2
#12 O=C(C[C@@H]1C[C@H]2c3cc(NC(=O)NC4CCCCC4)ccc3O[C@H]2[C@H](CO)O1)NC1CCCCC1
#13 COc1ccc(S(=O)(=O)N(C)C[C@H]2OCCCC[C@H](C)Oc3ccc(NS(C)(=O)=O)cc3C(=O)N([C@H](C)CO)C[C@@H]2C)cc1
#14 CC1(C(=O)NCc2ccccc2Br)CCN1Cc1ccccc1OC(F)F (configuration not stated)
#15 COc1ccc(S(=O)(=O)N(C)C[C@@H]2Oc3ccc(NC(=O)Cc4ccccc4)cc3CC(=O)N([C@H](C)CO)C[C@H]2C)cc1
#16 COc1ccc(CN(C)C[C@H]2OCCCC[C@H](C)Oc3ccc(NC(=O)C4CCCCC4)cc3C(=O)N([C@@H](C)CO)C[C@@H]2C)cc1

Assay by compound	9	10	11	12	13	14	15	16
FGF22 binding	i	i	i	i	i	i	i	i
AF4-AF9 inh	0.0	-0.5	-0.2	-4.0	1.7	-1.3	-1.0	0.4
rRNA inh HTS	-6	1	-2	4&-5	-5	-58	-1	0
rRNA inh HTS OD600	-4	10	-9	3&-13	-4	-78	-11	0
rRNA inh HTS RFP	-0.9	-1.8	1.4	-0.7&3.3	-1.4	-18	3.2	-1.5

#17 C[C@H](CO)N1C[C@H](C)[C@H](CN(C)Cc2ccc3c(c2)OCO3)Oc2ccc(NC(=O)Nc3ccc4c(c3)OCO4)cc2C1=O
#18 C[C@H]1CCCCO[C@@H](CN(C)CC2CCCCC2)[C@@H](C)CN([C@@H](C)CO)C(=O)c2cc(NC(=O)C3CCCCC3)ccc2O1
#19 CC=Cc1ccc2n(c1=O)C[C@@H]1[C@@H](CO)[C@H](C(=O)NCc3ccccc3F)N(CC)[C@H]21 (mixture of isomers)
#20 COc1cccc(CNC(=O)C[C@H]2C=C[C@H](NC(=O)C3CC3)[C@H](CO)O2)c1
#21 CC=Cc1ccc2n(c1=O)C[C@@H]1[C@@H](CO)[C@H](C(=O)Nc3ccc(-c4ccccc4)cc3)N(C)[C@H]21 (mixture of isomers)
#22 CC(C)C#Cc1ccc2c(c1)O[C@@H](CN(C)Cc1cncnc1)[C@@H](C)CN([C@@H](C)CO)S2(=O)=O
#23 C[C@H](CO)N1C[C@H](C)[C@H](CN(C)C(=O)C2CCC2)Oc2ncc(C3=CCCC3)cc2C1=O
#24 C[C@@H]1CN([C@H](C)CO)C(=O)c2cc(C#Cc3ccccc3F)cnc2O[C@H]1CN(C)C(=O)C1CCCCC1

Assay by compound	17	18	19	20	21	22	23	24
FGF22 binding	i	i	i	i	i	i	i	i
AF4-AF9 inh	6.3	5.5	0.7	0.4	7.5	-0.2	-3.1	4.8
rRNA inh HTS	4	3	0	0	-2	-12	6	1
rRNA inh HTS OD600	-6	4	0	8	-47	-17	-1	6
rRNA inh HTS RFP	-0.6	3.1	-3.0	1.0	30	0.6	-2.6	3.6

#25 O=C(NCCO)c1cccc(-c2ccc3nncn3c2)c1
#26 COc1ccc(-c2ccc3c(c2)[C@@H]2[C@@H](CCN2S(=O)(=O)C2=NC(C)C=N2)[C@@H](CO)N3C)cc1 (some centres not stated)
#27 CCC(=O)Nc1ccc2c(c1)C(=O)N(C)C[C@H](OC)[C@@H](C)CN(C(=O)CC1CC1)[C@H](C)CO2
#28 COc1ccc(NC(=O)N2C[C@H](O)COC[C@H]3O[C@H](CC(=O)N4CCCCC4)CC[C@@H]32)cc1
#29 CCCNC(=O)N1[C@@H](C#N)[C@@H](c2ccc(-c3ccccc3F)cc2)[C@@H]1CO
#30 CCCNC(=O)c1cc(C2CCCCN2S(=O)(=O)c2cn(C)cn2)on1 (configuration not stated)
#31 C[C@@H]1CN([C@H](C)CO)S(=O)(=O)c2ccc(C#CC3CCCC3)cc2O[C@@H]1CN(C)C(=O)C1CC1
#32 COc1ccc(NC(=O)N(C)C[C@@H]2Oc3ccc(NS(=O)(=O)c4ccc(Cl)cc4)cc3C(=O)N([C@H](C)CO)C[C@H]2C)cc1

Assay by compound	25	26	27	28	29	30	31	32
FGF22 binding	i	i	i	i	i	i	i	i
AF4-AF9 inh	-3.0	-1.4	-2.0	0.0	1.3	2.6	-19	-1.7
rRNA inh HTS	-11	-8	0	-5	0	9	-8	-4
rRNA inh HTS OD600	-11	-4	0	-2	-15	21	-32	-4
rRNA inh HTS RFP	-1.4	1.9	-1.2	-1.4	-1.7	1.1	20	2.7

Bioassay records (PubChem BioAssay)
